Compound activity (PubChem BioAssay)
Measles inh = inhibitors of measles virus growth in infected cells. infected Vero cells, GFP fluorescence, 64 h; stronger effect = lower value. z-score (test concentration not listed). 0.1% of 33,000 active;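 active means z-score under -3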;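 further: score is relative to mean and SD of the compound wells of a plate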
An asterisk follows results filed as active. A portion of the library; the hit share may differ from the screen's.

SMILES	Measles inh
COc1ccccc1NC(=O)c1c(NC(=O)c2ccco2)sc2c1CCC(C)C2 (stereo not drawn)	-0.61
O=C(Cn1c(=O)n(-c2cccc(C(F)(F)F)c2)c(=O)c2sccc21)NCCc1ccccc1	-0.16
CSc1cccc(Nc2c3c(nc4ccccc24)CCCC3)c1	-0.1
O=C(c1ccccc1)N1CCN(c2ccc([N+](=O)[O-])cc2F)CC1	2.1
C=C(C)COc1cc(O)c2c(=O)cc(-c3ccccc3)oc2c1	-2.7
CCc1cc2c(=O)c(Oc3ccccc3F)c(C)oc2cc1OCC(=O)O	2.8
COc1ccccc1NC(=O)CSc1oc(-c2ccco2)nc1S(=O)(=O)c1ccc(C)cc1	0.8
CCCCc1ccc(NC(=O)c2ccccc2[N+](=O)[O-])cc1	2.5
O=C(NCc1ccc2c(c1)OCO2)c1cccs1	-0.66
CCN(CC)C(=O)c1ccc(SCc2ccc(C)cc2)c([N+](=O)[O-])c1	-0.38
O=C(CC1CCCCC1)Nc1ncn[nH]1	0.61
COc1ccc(NC(=O)C2CCOC(C)(C)C2)cc1 (stereo not drawn)	-0.41
CCOC(=O)C(Sc1ncnc2c1sc1nc(N3CCOCC3)c3c(c12)CC(C)(C)OC3)c1ccccc1 (stereo not drawn)	-1.6
CCC(=O)N1CCN(C(=O)CC)C1c1ccccc1	0.43
CS(=O)(=O)N1CCN(CC2CC3C=CC2C3)CC1 (stereo not drawn)	-2.1
Cc1ccc(CN2CC34C=CC(O3)C(C(=O)NC3CCCCC3)C4C2=O)cc1 (stereo not drawn)	-0.15
CCOC(=O)Cc1c(C)nc2c(-c3cccc(Br)c3)cnn2c1C	0.44
Cc1ccc(NCCNc2cc(C)nc3c2ccc2ccccc23)c(C)c1	-0.35
O=C(CN1CCOCC1)Nc1c2c(nc3c1CCC3)CCC2	-0.12
CCOCCOC(=O)C1=C(C)NC2=C(C(=O)CC(C)(C)C2)C1c1ccc(CC)cc1 (stereo not drawn)	-0.94
CC1CCN(S(=O)(=O)c2ccc3[nH]c(=O)cc(C(=O)NCCCN4CC(C)CC(C)C4)c3c2)CC1 (stereo not drawn)	1.4
CCOc1c(Br)cc(C2Nc3ccccc3NC3=C2C(=O)CC(c2cc(OC)c(OC)c(OC)c2)C3)cc1OC (stereo not drawn)	0.39
Cc1ccn2c(-c3csc(Nc4ccc(N)cc4)n3)c(C)nc2c1	-0.52
COc1cccc(NC(=O)C(NC(=O)C2CCCCC2)C(C)C)c1 (stereo not drawn)	-1.2
COc1ccccc1C(=O)Oc1ccc2c(=O)c(Oc3cc(C)ccc3C)coc2c1	-0.1
COc1cccc(-n2ccnc2SCC(=O)Nc2cccc(Cl)c2)c1	-0.28
Cc1ccc2nc(N3CCC(C(=O)NCCC4=CCCCC4)CC3)[nH]c2c1	-0.52
COc1ccc(-c2nc(SCc3cccnc3)c3c(=O)n(C)c(=O)n(C)c3n2)cc1	1.1
COc1cc(OC)cc(-n2c(=O)c3sccc3n(Cc3cc(=O)n4c(C)cccc4n3)c2=O)c1	-0.13
CCc1ccc(-n2c(=O)c3c(C)c(C(=O)N(C)C)sc3n(Cc3cccc([N+](=O)[O-])c3)c2=O)cc1	-0.1
Cc1ccc(CCNC(=O)CCn2c(=O)[nH]c3ccccc3c2=O)cc1	0.65
CC1=C(C(=O)OCCOc2ccccc2)C(c2cccc(Cl)c2)NC(=O)N1 (stereo not drawn)	0.55
O=C(CCCn1c(=O)[nH]c2cc(Cl)ccc2c1=O)NCCc1c[nH]c2ccccc12	-0.02
Cn1c(CC(=O)O)c(Sc2ccccc2)c2ccccc21	-0.49
CCOc1ccc(/C(O)=C2\C(=O)C(=O)N(c3nccs3)C2c2cccc(Oc3ccccc3)c2)cc1 (stereo not drawn)	2.6
Cc1ccc(NC(=O)CSc2nc3nc(C)cc(C)n3n2)c(Cl)c1	-0.6

Six of the compounds above, in markdown:
| Structure | Measles inh |
| --- | --- |
| CCC(=O)N1CCN(C(=O)CC)C1c1ccccc1 | 0.43 |
| CSc1cccc(Nc2c3c(nc4ccccc24)CCCC3)c1 | -0.1 |
| Cc1ccc(CCNC(=O)CCn2c(=O)[nH]c3ccccc3c2=O)cc1 | 0.65 |
| Cc1ccc(NC(=O)CSc2nc3nc(C)cc(C)n3n2)c(Cl)c1 | -0.6 |
| CCOc1c(Br)cc(C2Nc3ccccc3NC3=C2C(=O)CC(c2cc(OC)c(OC)c(OC)c2)C3)cc1OC (stereo not drawn) | 0.39 |
| COc1cccc(NC(=O)C(NC(=O)C2CCCCC2)C(C)C)c1 (stereo not drawn) | -1.2 |

Next results
SMILES	Measles inh
CC(=O)Nc1cc(C(=O)N2CCN(c3cccc(C(F)(F)F)c3)CC2)ccc1Sc1ccc(Cl)cc1	-1.6
Cn1c(=O)c2c(ncn2CC(O)CNC=O)n(C)c1=O (stereo not drawn)	-0.69
Cc1cc(OCC(=O)Nc2sc3c(c2C(N)=O)CCCC3)ccc1[N+](=O)[O-]	1.5
COc1ccc(CCNC(=O)CCN2C(=S)NC(C)(C)CC2C)cc1OC (stereo not drawn)	0.2
CC(=O)CSc1nc2c(c(=O)[nH]c(=O)n2C)n1Cc1ccccc1Cl	-1
Cc1cc(C=Nc2ccc(N3CCOCC3)cc2)c(O)c([N+](=O)[O-])c1	-0.11
NC(=O)C1CCN(C(=O)c2ccc3c(=O)n(Cc4ccccc4)c(=S)[nH]c3c2)CC1	-0.58
COCCNC(=O)c1ccc2snnc2c1	0.51
O=C1C(=O)N(CCN2CCOCC2)C(c2ccc(F)cc2)/C1=C(\O)c1ccc(Cl)cc1 (stereo not drawn)	0.44
FC(F)(F)c1cccc(-c2nnc3cccc(Cl)n23)c1	-1.5
CCOC(=O)CSc1ncnc2c1c(-c1ccccc1)cn2-c1ccc(OCC)cc1	2.3
Cc1ccc(C(=O)Nc2ccccc2C(=O)O)cc1S(=O)(=O)Nc1cccc(Cl)c1	-0.88
Cn1ccnc1SCc1ccc(Br)cc1	0.16
COc1ccc(CCNC(=O)C2CCN(S(=O)(=O)N3CCOCC3)CC2)cc1OC	0.08
O=C(NCCOc1ccccc1Cl)c1ccc(CSC2CCCCC2)cc1	-0.72
O=[N+]([O-])c1ccc(-n2nc(-c3ccco3)cc2-c2ccccc2)cc1	0.37
O=S(=O)(Nc1ccccc1Br)c1cccnc1	0.19
N#Cc1cc(-c2ccccc2C(F)(F)F)no1	-0.11
COC(=O)c1cc(C(=O)N2CCN(Cc3ccccc3)CC2)cc([N+](=O)[O-])c1	-0.62
COc1ccc(C2/C(=C(\O)c3ccc(C)cc3)C(=O)C(=O)N2CC(C)C)cc1OC (stereo not drawn)	-0.46
Cc1ccc2nc(SCc3nc4cccc(C)n4c3Br)[nH]c2c1	-0.68
Cc1ccnc(NS(=O)(=O)c2ccc(NC(=O)c3cc(-c4ccccc4)nc4ccccc34)cc2)n1	-0.89
COc1ccc(OC)c(NC(=O)c2cc(S(=O)(=O)N(C)Cc3ccccc3)ccc2F)c1	0.18
Cc1ccc(N2C(=O)c3ccccc3C2=O)cc1I	-0.54
CCN1CCC2(CC1)CC1CC3C=CC1(CN2C(C)=O)O3 (stereo not drawn)	-0.1
Cc1ccc(N2C(=O)CC(Sc3nnc(C)s3)C2=O)c(C)c1 (stereo not drawn)	0.13
CCCn1c(=NC(=O)c2ccccc2OC)c(C(=O)OCC)cc2c(=O)n3ccccc3nc21	0.23
FC(F)(F)c1cc(C=Cc2ccccc2)no1	0.79
O=C(Nc1ccc(Cc2ccncc2)cc1)C1CCC(N2C(=O)C3CCCCC3C2=O)CC1 (stereo not drawn)	0.9
CCOc1ccc2c(c1)nc1n2C(=O)CC(c2ccccc2)S1 (stereo not drawn)	-0.17
COc1ccc2nc3sc(C(=O)N(C)c4ccc(Cl)cc4)cc3cc2c1	0.36
Cc1ccc(S(=O)(=O)N2CCN(Cc3cccc(Oc4ccccc4)c3)CC2)cc1	-1.2
COC(=O)C1=C(N)OC2=C(C(=O)CCC2)C1c1ccc(OCc2ccccc2)cc1 (stereo not drawn)	2
CCOC(=O)c1sc(NC(=O)c2ccccc2C)c(C(=O)OCC)c1C	-0.99
CCS(=O)(=O)N1CCC(C(=O)NC2CCCCCC2)CC1	-0.46
Cc1cccc(-n2nc3c(c2NC(=O)c2cccc([N+](=O)[O-])c2)CS(=O)(=O)C3)c1C	0.5
Cc1ccc(-n2ncc3c(=O)[nH]c(SCC(=O)Nc4ccc5c(c4)OCO5)nc32)cc1C	0.56
CC(=O)NC1C(=O)N=C(SCC(=O)Nc2ccc(C(F)(F)F)cc2Cl)NC1=O (stereo not drawn)	0.5
Cn1nc(-c2ccc(N3CCOCC3)c(NC(=O)COc3ccccc3)c2)c2ccccc2c1=O	0.64
O=C(CSc1ncccc1C(=O)O)Nc1cccc(Cl)c1	-0.81
CC1=C(C(=O)OCC2CCCO2)C(c2cccc(Cl)c2)C2=C(CC(C)(C)CC2=O)N1 (stereo not drawn)	-0.2
CCN(C(=O)CCS(=O)(=O)c1cc(Br)cc2c1N(C(=O)C1CC1)CC2)c1ccc(F)cc1	1.1
CCc1c(C)c(C#N)c2nc3ccccc3n2c1NC1CCCCC1	0.04
CC(C)(C)n1nc2c(c1NC(=O)Cc1ccccc1)CSC2	0.01
CCOCCn1c(SC)nc2c1c(=O)[nH]c(=O)n2C	-0.12
O=C(Nc1ccccc1I)c1ccccc1Br	-0.04
Clc1ccc(-c2nc(NCc3ccco3)c3ccccc3n2)cc1	-0.59
CC(C)Cn1cc(F)c(=O)n(CC(C)C)c1=O	-0.5

A different layout for part of the listing above.
SMILES: Cc1ccc(-n2ncc3c(=O)[nH]c(SCC(=O)Nc4ccc5c(c4)OCO5)nc32)cc1C
  Measles inh: 0.56

SMILES: CC(C)(C)n1nc2c(c1NC(=O)Cc1ccccc1)CSC2
  Measles inh: 0.01

SMILES: CC(=O)NC1C(=O)N=C(SCC(=O)Nc2ccc(C(F)(F)F)cc2Cl)NC1=O (stereo not drawn)
  Measles inh: 0.5

Further entries:
SMILES	Measles inh
COc1ccc(OCC(=O)Nc2ccc(S(=O)(=O)N3CCCC3)cc2)cc1	-0.78
CCC(C)NC(=O)C1CC(=O)N(C2CCCCC2)C1 (stereo not drawn)	-1.1
C=CCOC(=O)C1=C(C)Nc2nc3ccccc3n2C1c1cccc(OC)c1 (stereo not drawn)	-0.21
CC1(C)CC(=O)C2=C(C1)Nc1nc(SCc3ccccc3F)[nH]c(=O)c1C2c1ccncc1 (stereo not drawn)	-0.62
COc1ccc2nc(NC(=O)C3c4ccccc4C(=O)N(C)C3c3c[nH]c4ccccc34)sc2c1 (stereo not drawn)	-0.74
NC(=O)CNC1CC(=O)N(c2ccc(Br)cc2)C1=O (stereo not drawn)	-0.09
Cc1cccc(C(=O)OCc2ccc([N+](=O)[O-])cc2)c1	-0.65
CCc1ccc(NC(=O)c2cccc(N3C(=O)NC4CC3(C)Oc3ccccc34)c2)cc1 (stereo not drawn)	2
Cc1ccc(Oc2ccc(NC(=O)C3CCC(C)CC3)cc2)cc1 (stereo not drawn)	-0.68
CCOC(=O)c1c(N=CC=Cc2ccc([N+](=O)[O-])cc2)sc2c1CCCC2	-1.6
COc1ccc(-c2cc(C(=O)Nc3ccc(C#N)cc3)no2)cc1	1.5
CCOC(=O)c1c(NC(=O)c2cc3cc(Br)ccc3oc2=O)sc2c1CCC(C)C2 (stereo not drawn)	0.18

Part of the list above, as a markdown table.
| Compound | Measles inh |
| --- | --- |
| Cc1cccc(C(=O)OCc2ccc([N+](=O)[O-])cc2)c1 | -0.65 |
| CCc1ccc(NC(=O)c2cccc(N3C(=O)NC4CC3(C)Oc3ccccc34)c2)cc1 (stereo not drawn) | 2 |
| Cc1ccc(Oc2ccc(NC(=O)C3CCC(C)CC3)cc2)cc1 (stereo not drawn) | -0.68 |
| CCOC(=O)c1c(N=CC=Cc2ccc([N+](=O)[O-])cc2)sc2c1CCCC2 | -1.6 |

Following part.
SMILES	Measles inh
COc1ccc(C2C(C(=O)OCCOC(C)C)=C(C)NC3=C2C(=O)CC(C)(C)C3)c(OC)c1 (stereo not drawn)	1.1
CCc1nnc(NC(=O)CSc2nccn2-c2ccc(OC)cc2)s1	0.93
COc1cc(C2c3c(-c4ccc(C)cc4)n[nH]c3C(=O)N2c2ccc(F)cc2)ccc1O (stereo not drawn)	-0.29
O=C1c2ccc(-n3c(=O)c4ccccc4c4ccccc4c3=O)cc2C(=O)N1c1ccccc1	-0.72
CCN1CCCC1CNC(=O)c1cc2cc3cc(OC)ccc3nc2s1 (stereo not drawn)	0.59
CCn1cc(SCC(=O)Nc2ccc(C)cc2)c2ccccc21	0.55
CCCCCC(=O)N1c2ccccc2NC2=C(C(=O)CC(c3cccc([N+](=O)[O-])c3)C2)C1c1ccc(OC)cc1 (stereo not drawn)	0.14
N#CCCn1c2c(ccc1=O)CCCC2	0.03
CC1=C(C(=O)OCCOc2ccccc2)C(c2cc([N+](=O)[O-])ccc2Cl)C2=C(CCCC2=O)N1 (stereo not drawn)	0.67
CCOC(=O)C1=C(C)N(C)C(C)=C(C(=O)OCC)C1c1cccs1	-1.5
CCOC(=O)Cn1c(=O)oc2cc(Cl)ccc21	1.3
COc1ccc(C(=O)Nc2ccc(O)c(-c3nc4cc(C)ccc4o3)c2)cc1Br	0.08
Cc1ccc(C(=O)OC(=Cc2nccn2Cc2ccccc2)c2ccc(C)cc2)cc1	-1.3
CCOC(=O)C1CCN(C(=O)c2sc3nc(C)nc(N4CCC(C)CC4)c3c2C)CC1	-0.66
CN(C)CCNC(=O)C1c2ccccc2C(=O)N(C)C1c1c[nH]c2ccccc12 (stereo not drawn)	-0.47
FC(F)Oc1ccc(-c2cc3ccccn3c2)cc1	0.67
Cc1ccc(NC(=O)CSc2nnc3c(C)cc4ccccc4n23)cc1	1.7
Cc1cc(Br)ccc1NC(=O)c1oc(=O)c2ccccc2c1-c1ccccc1	1.1
COc1ccc(-c2noc(CCC(=O)Nc3ccc(F)cc3)n2)cc1	0.65
CCOC(=O)c1cc2c(=O)n3ccccc3nc2n(C)c1=NC(=O)c1cccc(Cl)c1	-0.15
CC(=O)C12CC3CC(C1)CC(C(C)=O)(C3)C2	-0.05
O=C(O)CCCC(=O)NCc1ccccn1	-0.43
NS(=O)(=O)c1ccc(NC(=O)CN2CCN(S(=O)(=O)c3ccc(Cl)cc3)CC2)cc1	-0.34
Cc1oc(-c2cccc(Br)c2)nc1CN1CCC(C(=O)NCc2ccc(Cl)cc2)CC1	-0.64
COCCn1c(=O)[nH]c2cc(C(=O)NCCC(C)C)ccc2c1=O	0.32
CC(C)NC(=O)c1ccc(CSCc2ccc(Cl)cc2)o1	0.57
